# gsp ag = gsp mutant agonism. gsp mutant cells, cAMP HTRF, 30 min; control for the full effect not named in the record. AID 624287. 340,000 compounds, 0.13% hits. Potency, µM (highest dose often 76.9 µM), inactives show top-dose activation (cAMP increase), usual class: activators; active = well fitted activation curve with a large enough effect; inconclusive = small, poorly fitted or top-dose-only effect, or another doubt; inactive = no such curve, though single readings can be large or run the other way; cell line not stated here;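 also: phosphodiesterase inhibitor Ro 20-1724 added with compounds to block cAMP breakdown; potency is read from the fitted curve at half-maximal effect; nearly all actives have a fitted effect of over 60% in size; about a fifth of the inactives were tested at one dose only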
#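 Cells in DMEM/10% FBS with G418 were pretreated with compounds in DMSO plus […] (300 uM stock) for 30 min at 37C. cAMP was measured by HTRF (cAMP-d2 plus anti-cAMP antibody-K) after 30 min at room temperature.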
# CtBP-E1A blk = blocks the CtBP interaction with E1A | AlphaScreen GST-E1A/His-CtBP binding, 1536-well; stronger effect = lower value; control for the full effect not named in the record | activity change, % (no concentration beside the values) | 340,000 compounds, 0.49% hits | AID 651724; in the data active means activity change below about -65%; inconclusive means about -30% to -65%; inactive means above about -30%; also: % is scaled to controls: 0 for no effect and ±100 for the full control effect
#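 AlphaScreen with 125 nM GST-E1A and 125 nM His-CtBP (5X stocks) in Tris pH 8.0, 300 mM NaCl, BSA, Tween 20, TCEP. Compounds preincubated 2 h at 37 deg C, then glutathione donor/nickel acceptor beads added for 1 h at 37 deg C in dark.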
# ClpP mod = qHTS Assay for Activators of ClpP | ATP-dependent Clp protease proteolytic subunit (Bacillus subtilis (strain 168)), P80244 | Potency, µM (series often up to 57.5 µM), for the others: at the highest dose activity change, negative = active | purified B. subtilis ClpP, FRET peptide cleavage, 20 min | 340,000 compounds, 1.9% hits; active = well fitted falling curve with a large enough effect; inconclusive = small, poorly fitted or top-dose-only effect; inactive = no such curve, though single readings can be large or run the other way; also: potency is read from the fitted curve at half-maximal effect; the source files actives as falling curves though it sought activators and does not explain the sign; nearly all actives have a fitted effect of over 65% in size; many hits overshoot -100%
# Target sequence (P80244 whole entry, looked up): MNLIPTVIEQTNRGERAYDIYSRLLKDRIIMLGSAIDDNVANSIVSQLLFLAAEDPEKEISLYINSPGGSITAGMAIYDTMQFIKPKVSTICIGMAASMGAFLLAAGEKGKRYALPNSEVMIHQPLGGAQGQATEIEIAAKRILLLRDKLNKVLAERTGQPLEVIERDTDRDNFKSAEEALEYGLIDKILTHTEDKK
#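 Buffer: 100 mM Tris/HCl pH8, 100 mM KCl, 0.05% low protease BSA, 2.5% glycerol, 0.01% Tween-20. ClpP 10 microg/mL final; 20 min RT; delta FRET normalized to ADEP and DMSO controls.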
# gsp antag = gsp mutant antagonism. 340,000 compounds, 0.4% hits. gsp-mutant cells, cAMP HTRF, 30 min; control for the full effect not named in the record. Potency, µM (highest dose often 76.9 µM), inactives show at the highest dose activity change, negative = inhibition, usual class: inhibitors. AID 624288; active = falling curve of any shape with a large fitted effect; inconclusive = falling curve, mostly with a smaller effect; inactive = flat or rising curve; cell line not stated here;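 also: intracellular cAMP measured with PDE inhibitor Ro 20-1724 present during compound exposure; potency is read from the fitted curve at half-maximal effect; % is scaled to controls: 0 for no effect and ±100 for the full control effect; nearly all actives have a fitted effect of over 65% in size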
#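 Measurement of cellular cAMP by homogeneous time-resolved fluorescence following a 30 min compound exposure at 37C. The PDE inhibitor […] was present throughout; the assay buffer was DPBS with 0.05% BSA and 0.005% Tween 20.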
# Menin MLL FP FL = menin-MLL binding inhibition, fluorescein peptide; Fluorescence polarization, fluorescein-MLL peptide displacement from menin; FP activity change, % at 61.4 µM; 290,000 tested, under 10 active; AID 1766; inconclusive = falling polarisation curve, or a change in total fluorescence; inactive = total fluorescence flat and polarisation flat or rising; no compound was filed as active; the % refers to the polarisation; negative = inhibition;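 also: % of control where 0% means no effect; inhibitors lower the polarisation; unlabelled MLL peptide was the positive control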
# TRPV1 PAM = enhances activation of the human vanilloid receptor TRPV1 | Q8NER1 | TRPV1-expressing cells, Fluo-8 calcium influx, capsaicin EC20 potentiation; host cell line not named in the record; control for the full effect not named in the record | potentiation, % at 8.33 µM | 320,000 compounds, 0.02% hits | AID 540277; active means potentiation above 80%; inconclusive means 30% to 80%; inactive means below 30%; also: 0% is about no effect
# Target sequence (Q8NER1 whole entry, looked up): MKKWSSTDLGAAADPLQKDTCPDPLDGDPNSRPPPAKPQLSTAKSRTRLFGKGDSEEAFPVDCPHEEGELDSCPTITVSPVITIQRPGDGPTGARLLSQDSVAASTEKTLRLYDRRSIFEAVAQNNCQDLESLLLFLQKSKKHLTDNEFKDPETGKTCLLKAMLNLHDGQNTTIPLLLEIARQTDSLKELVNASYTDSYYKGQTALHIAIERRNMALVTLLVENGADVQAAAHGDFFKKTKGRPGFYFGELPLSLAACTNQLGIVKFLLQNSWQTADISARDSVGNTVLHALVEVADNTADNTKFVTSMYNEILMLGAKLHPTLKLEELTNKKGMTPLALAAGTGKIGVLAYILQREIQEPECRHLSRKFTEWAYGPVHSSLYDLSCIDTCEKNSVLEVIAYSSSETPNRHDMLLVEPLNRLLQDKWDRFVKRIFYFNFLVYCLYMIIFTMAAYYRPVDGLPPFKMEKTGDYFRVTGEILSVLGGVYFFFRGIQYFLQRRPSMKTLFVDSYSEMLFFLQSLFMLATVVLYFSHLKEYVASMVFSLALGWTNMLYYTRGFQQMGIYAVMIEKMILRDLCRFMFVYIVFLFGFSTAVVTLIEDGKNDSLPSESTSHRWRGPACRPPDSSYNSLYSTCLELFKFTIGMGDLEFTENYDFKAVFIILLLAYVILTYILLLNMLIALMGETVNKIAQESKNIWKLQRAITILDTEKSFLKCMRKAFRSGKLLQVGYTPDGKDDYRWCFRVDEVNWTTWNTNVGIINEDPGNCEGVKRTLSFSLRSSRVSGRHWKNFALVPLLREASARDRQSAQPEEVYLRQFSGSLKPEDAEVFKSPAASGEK
#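 Cells expressing TRPV1 were dye-loaded with Fluo-8 and read kinetically: 10 s baseline, 3 min after compound (agonist portion), then 2 min after EC20 capsaicin (allosteric enhancer portion). Calcium-bound dye fluorescence at 480/520 nm.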
# Sfp PPTase inh = inhibitors of Bacillus subtilis Sfp phosphopantetheinyl transferase; Q9F4F7; Biochemical Sfp PPTase activity, qHTS; Potency, µM, for inactives: max response, negative = inhibition, usual class: inhibitors; 310,000 compounds, 3.5% hits; AID 1490; active = well fitted inhibition curve with a large enough effect; inconclusive = small, poorly fitted or top-dose-only effect, or another doubt; inactive = no such curve, though single readings can be large or run the other way;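 also: the enzyme is Sfp with the accession as filed and its product quenches rhodamine fluorescence; potency is read from the fitted curve at half-maximal effect; 0% = enzyme reaction without inhibitor and -100% = no enzyme wells; top concentration of the series not given in the record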
#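 Compounds were incubated with enzyme (final 15 nM) for 15 min at room temperature before substrate addition started the reaction. Fluorescence at 525 nm excitation, 598 nm emission was recorded immediately and after 30 minutes.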
# An asterisk follows results filed as active; ? = inconclusive; . = not tested or not shown; [ ] = remark or other dose.
SMILES,gsp ag,CtBP-E1A blk,ClpP mod,gsp antag,Menin MLL FP FL,TRPV1 PAM,Sfp PPTase inh
O=C1N=C(N2CCOCC2)S/C1=C1\C(=O)N(Cc2ccccc2)c2ccccc21,-57%[inhibitor],4,-4.5%,9%,-2.0,-25,-8%
CCCc1nc2nc(C)c(NS(=O)(=O)c3ccc(Cl)cc3)c(=O)n2[nH]1,-2%,2,.,-1%,0.0,-8,24%
Cc1ccc(C(=O)NCC(C)NC(=O)c2ccc(C)c(C)c2)cc1C (stereo not given),0%,6,.,-5%,.,.,.
CN(Cc1ccccc1)C(=O)CN1C(=O)NC2(CCCCCCC2)C1=O,-4%,-9,?,-2%,.,3,.
COc1ccc(S(=O)(=O)NC(C)C(=O)NCc2ccccn2)cc1OC (stereo not given),0%,3,.,4%,6.3,1,18%
CN(C)c1ccc(NC(=O)CN2CCN(c3ccc(F)cc3)CC2)cc1,5%,.,-1.0%,4%,0.1,13,24%
CCc1ccc(N(C(=O)CCC(=O)Nc2cc(C)on2)C(C(=O)NC2CCCC2)c2ccco2)cc1 (stereo not given),-42%[inhibitor],-4,0.6%,-23%,-1.6,-10,8%
CCOC(=O)C1=C(C)NC(=O)NC1c1ccc(OCC(N)=O)cc1 (stereo not given),0%,-3,0.9%,10%,1.6,-2,20%
Cc1ccc(S(=O)(=O)NC2CC3CCC2C3)cc1 (stereo not given),15%[15.4 µM],11,.,10%,.,.,.
CCNC(=O)COC(=O)c1sccc1C,-5%[15.4 µM],9,-6.2%,7%,-2.3,9,-9%
COc1ccccc1NS(=O)(=O)c1ccc(NC(=O)c2ccncc2)cc1,-5%,-12,.,14%,-2.7,4,16%
O=C(Cn1c(=O)n(-c2ccc(F)cc2)c(=O)c2sccc21)NC1CCCCC1,0%,.,1.0%,-2%,-1.5,-5,-1%

# Sorted by value in gsp antag (high to low): 3 from the list above.
Structure | gsp antag
CCOC(=O)C1=C(C)NC(=O)NC1c1ccc(OCC(N)=O)cc1 (stereo not given) | 10%
CN(C)c1ccc(NC(=O)CN2CCN(c3ccc(F)cc3)CC2)cc1 | 4%
O=C(Cn1c(=O)n(-c2ccc(F)cc2)c(=O)c2sccc21)NC1CCCCC1 | -2%

# The listing continues:
SMILES,gsp ag,CtBP-E1A blk,ClpP mod,gsp antag,Menin MLL FP FL,TRPV1 PAM,Sfp PPTase inh
Cc1cccc(-n2nnnc2SC(C)C(=O)NCCC2=CCCCC2)c1 (stereo not given),0%,11,-0.3%,-19%,-4.8,-1,?
O=C(NCCCO)/C(=C\c1ccco1)NC(=O)c1ccc(Br)o1,?,0,-13%,6%,3.1,-4,-7%
N=c1ncn(C2OC(CO)C(O)C2O)c2nc(Br)[nH]c12 (stereo not given),29%,31,-0.2%,.,.,.,.
Cc1ccc(O)c(C(=O)c2cnc3c(c2)c(=O)n(C)c(=O)n3C)c1,2%[15.4 µM],7,.,-12%,2.8,15,-1%
CC(C)CC(=O)Nc1cccc(-c2nc3ncccc3o2)c1,3%,-20,3.7%,-9%,10,11,14%
C[C@]12CS(=O)(=O)C[C@H]1SC(=S)N2c1ccccc1,20%[15.4 µM],-21,-6.9%,7%,5.7,2,-7%
CCOc1ccc(NC(=O)CN(C)C(=O)c2cc(S(=O)(=O)N3CCCCCC3)ccc2OC)cc1OCC,13%,2,-0.5%,-9%,.,26,.
Nn1c(SCC(=O)Nc2ccc3c(c2)OCO3)nnc1-c1ccccc1,16%,0,-1.0%,1%,6.2,-6,-5%
Cc1ccc(C(=O)CSc2nnnn2-c2ccccc2)o1,-6%,3,2.7%,-2%,2.1,-4,-2%
Nc1c(C(=O)NCCN2CCOCC2)c2nc3ccccc3nc2n1-c1cccc(F)c1,23%,8,10µM*,-12%,3.7,-22,-4%
C#CCN(C[C@@H]1[C@@H](OC(=O)NC2CCCC2)[C@@H](OC(=O)NC2CCCC2)Cn2c(=O)ccc(=O)n21)S(=O)(=O)c1ccc(C)cc1,-22%,-17,-1.8%,.,.,.,.
CC1(C)SC(C)(C)N(C=O)C1C(=O)O (stereo not given),15%[15.4 µM],-1,-1.8%,4%,.,.,.
COc1ccc(C2Nc3ccccc3C(=O)N2Cc2ccccc2)cc1OC (stereo not given),2%,4,3.7%,-4%,.,.,.
CCC1SC2=NC(C)=C(C(=O)OCCOC)C(c3ccc(C(=O)OC)cc3)N2C1=O (stereo not given),13%,-1,-0.9%,-5%,0.2,1,-8%
NC(=O)CC(NC(=O)c1ccccc1)c1ccc(N2CCN(c3ccccn3)CC2)c([N+](=O)[O-])c1 (stereo not given),-42%[inhibitor],-6,1.6%,-7%,-2.7,11,10%
COc1ccc(OC)c(/C=C(\C)C(=O)c2c(C)cc(C)[nH]c2=O)c1,4%[15.4 µM],-9,-1.9%,1%,.,.,.
O=C(c1ccc2[nH]c(=O)c(=O)[nH]c2c1)N1CCc2ccccc2C1,-20%,.,3.8%,8%,1.4,-1,8%
Cc1ccccc1NC(=O)C(=O)NCc1ccccn1,?,-1,-0.2%,-10%,1.8,9,10%
COc1ccc(-n2ncc3c2CC(C)(C)CC3NC(=O)C2CCN(C(C)=O)CC2)cc1 (stereo not given),?,0,2.3%,11%,.,6,11%
OCCC1CN(CC2CC2)CCN1Cc1ccc(F)c(F)c1 (stereo not given),2%[15.4 µM],-1,16%,8%,0.9,14,8%
CCOC(=O)c1ccc2c(c1)[nH]c(=S)n2CC,-4%,.,-5.8%,6%,-0.7,-4,10%
O=C1Nc2ccccc2/C1=C/c1ccc([N+](=O)[O-])cc1,?,5,1.4%,16%,5.4,-8,5%
COc1ccc(OCCNC(=O)c2ccccc2Cl)cc1,7%,6,1.1%,16%,-15,4,9%
C=CCn1c(NCc2ccccc2OC)nc2ccccc21,15%,.,1.3%,1%,-5.2,?,12%
O=C(CN(C(=O)c1csnn1)c1ccc(Cl)cc1)NCc1ccc2c(c1)OCO2,2%[15.4 µM],21,.,-33%,-3.8,1,6%
CN(Cc1ccccn1)C(=O)c1ccc2nc(Cc3cccc(Cl)c3)oc2c1,-14%,-2,0.5%,-26%,.,-9,18%
COC(=O)C(NC(=O)c1ccccc1)C(C)(C)SCc1ccccc1 (stereo not given),-21%,2,2.2%,.,.,.,.
O=C(c1ccc(NS(=O)(=O)c2ccc(F)cc2)cc1)N1CCCCC1,-29%,-17,-1.3%,-1%,.,7,.
O=C(N/C(=C\c1cccnc1)C(=O)N1CCC(O)CC1)c1ccccc1,-9%[15.4 µM],17,1.0%,12%,-0.4,7,4%
O=C1C=C(c2ccc(Br)c3ccccc23)C[C@@H](c2ccc3c(c2)OCO3)C1,.,-19,0.2%,-5%,.,3,.
CCc1ccc(/C=N/n2c(C3CCCCC3)n[nH]c2=S)cc1,-58%[inhibitor],.,0.4%,-11%,4.3,-19,?
O=C1c2ccccc2NC(c2ccccc2O)N1c1ccc(F)cc1 (stereo not given),-18%,7,.,-4%,5.2,4,12%
Cc1ccc(-c2nc(-c3ccncc3)no2)cc1,-25%[15.4 µM],8,0.8%,14%,3.2,-10,-1%
CC(=O)NC(CCS(C)(=O)=O)C(=O)Nc1ccccc1C (stereo not given),-22%,2,-0.8%,10%,-2.3,3,-8%
O=C(CNS(=O)(=O)c1cccc2nsnc12)NCCc1ccccc1,?,3,0.2%,8%,2.7,24,12%
O=C1OCC/C1=C\c1ccc2c(c1)OCO2,-7%,3,.,-2%,-3.9,9,15%
O=C(COC(=O)c1ccccc1Nc1cccc(C(F)(F)F)c1)NCc1ccco1,0%,-3,7.2%,-26%,-0.2,-7,-5%
O=C(O)c1cccc(-n2c(-c3cnccn3)n[nH]c2=S)c1,1%[15.4 µM],-7,.,-4%,-0.7,-13,28µM*
COc1ccc(NC(=O)CN(C)CC(=O)N2CC(=O)Nc3ccccc32)cc1,15%,.,1.7%,-14%,.,.,.
O=C(c1ccccc1)c1ccc(-n2cnnc2)c([N+](=O)[O-])c1,-7%[15.4 µM],3,.,-18%,-0.8,-6,11%
O=C(Nc1ncc2c(n1)-c1ccccc1CC2)c1cccs1,-9%,-6,.,-16%,-2.3,3,7%
O=C(CC(c1ccccc1)c1cc(Cl)ccc1O)N1CCOCC1 (stereo not given),23%,-18,-0.8%,-11%,4.0,1,0%
CCCN1C(=O)C(O)(CC(=O)c2cccc(OC)c2)c2ccccc21 (stereo not given),2%,5,0.4%,-4%,-0.4,-24,-19%
CCOC(=O)c1c(-c2ccccc2)oc2cc(Br)c(O)c(C=O)c12,-3%,0,0.6%,?,?,-1,?
COc1ccc(N2CCN(C(=O)CCn3nnc4ccccc43)CC2)cc1,-3%,-3,-1.2%,9%,6.3,-5,14%
COc1ccccc1C(=O)Nc1ccon1,-41%[inhibitor],2,-5.5%,12%,2.2,1,20%
CCOC(=O)c1[nH]c(C)c(C(=O)N2CCN(C(=O)OCC)CC2)c1CC,-27%,-3,-3.2%,1%,0.5,-32,10%
Cc1onc(NC(=O)c2ccc(Cl)cc2Cl)c1Br,0%,0,.,-9%,-0.3,-12,2%
COc1cccc(COC(=O)CCNC(=O)c2ccc(Cl)cc2)c1OC,-77%[inhibitor],11,2.5%,2%,.,-19,.
CCCN1CCC(=NNc2ccc(S(=O)(=O)N3CCOCC3)cc2[N+](=O)[O-])CC1,7%,-15,-1.3%,20%,1.1,-12,-5%
Cc1ccc(N2C(=O)N(CC(=O)NC(c3ccccc3)c3ccccc3)C(=O)C2C)cc1 (stereo not given),?,-3,-4.1%,-9%,1.2,-3,17%
CC(C)(Oc1ccc(Cl)cc1)C(=O)Nc1ccc2oc(-c3ccncc3)nc2c1,18%,0,28µM*,?,3.0,3,2%
O=C(Cc1cccc2ccccc12)NNC(=O)Nc1ccc(Cl)cc1,-2%[15.4 µM],0,.,-3%,1.6,-5,4%
Cc1nc2ccc(Br)cn2c1C(=O)N/N=C\c1ccccc1Cl,1%,8,-0.3%,6%,0.7,-14,27%
Cc1cc(NCc2ccccn2)n2ncc(-c3ccc(Cl)cc3)c2n1,?,18,.,-4%,-2.0,-3,-19%
